Source: PubChem BioAssay (Broad Institute)
Calb FLC: C. albicans growth modulation with fluconazole. C. albicans CaCi-2 (fluconazole-resistant clinical isolate) + fluconazole, Alamar Blue growth, 48 h. growth inhibition, % (test concentration not listed). 0.57% of 300,000 active;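 active = most replicates above 75%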;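 note: all wells also contain fluconazole at 8 µg/ml as a sub-toxic cotreatment; 0% = median of DMSO wells and 100% = median of geldanamycin control wells; wells of about 8 µL received 7.5 nL stock; the first replicate is given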
T cruzi inh: blocks replication of Trypanosoma cruzi | AID 1885 | 1.4% of 300,000 active | T. cruzi beta-gal in NIH3T3, luminescence, 90 h | inhibition, % (concentration not given with the values);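 active = mean inhibition across valid replicates above about 55%, limit read from the data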;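 note: signal also drops with host cell toxicity which is not excluded here; 0% = plate median of DMSO wells and 100% = zero luminescence signal; higher percent means less beta-gal luminescence so fewer parasites; stock transfer was 50 nL into about 50 µL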
Beta apoptosis: blocks beta cell apoptosis | 0.8% of 300,000 active | AID 435005 | INS-1E cytokine-induced death, ATP luminescence, 48 h; percent of positive-control rescue, neutral wells zero | protection from apoptosis, % (no concentration beside the values);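 active = all replicates at 75% or more, or half of them and the mean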;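 note: 0% = cytokine-treated negative control wells and 100% = positive control rescue; higher means more ATP so stronger rescue from cytokine killing; wells of about 40 µL received 100 nL stock; the first replicate is given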
Ecoli rRNA inh: selective bacterial rRNA inhibition in E. coli | GFP signal change (wild-type ribosome), % (no concentration beside the values) | 1.6% of 350,000 active | AID 720706 | E. coli WT GFP vs humanized-ribosome RFP mutants, fluorescence, 24 h; stronger effect = lower value; DMSO median 0, no signal -100;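 active = significant combined selectivity score with lowered wild-type GFP, culture density cut under 30%, mutant RFP and density less affected; inactive = any of these conditions unmet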; note: one replicate is shown; some compounds called inactive have numbers as strong as hits
RanGTP-Impb inh: inhibitors of RanGTP-importin-beta interaction, primary screen, biochemical, FRET, CFP-Ran, YFP-importin-beta, homogeneous | AID 2216 | 1.1% of 300,000 active | inhibition, % (concentration not given with the values) | cell-free CFP-Ran/YFP-importin-beta FRET ratio;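 active = most replicates above 15%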;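 note: 0% = DMSO wells and 100% = Ran loaded with GDP instead of GTP; wells of about 40 µL received 100 nL stock; the first replicate is given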
MLL AF4-AF9 inh: inhibitors of human MLL-AF4/AF9 interaction; AlphaScreen, biotin-AF4 peptide binding to FLAG-AF9; inhibition, % at 10 µM; 0.47% of 350,000 active;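 active = every replicate reaching a set inhibition limit, whatever the replicate mean, cut at about 25% in these data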;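 note: 0% = plate neutral control median and 100% = total signal loss; the record names both 10 and 1 µM as test concentration; the first replicate is given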
Target sequence (P42568 whole entry, looked up): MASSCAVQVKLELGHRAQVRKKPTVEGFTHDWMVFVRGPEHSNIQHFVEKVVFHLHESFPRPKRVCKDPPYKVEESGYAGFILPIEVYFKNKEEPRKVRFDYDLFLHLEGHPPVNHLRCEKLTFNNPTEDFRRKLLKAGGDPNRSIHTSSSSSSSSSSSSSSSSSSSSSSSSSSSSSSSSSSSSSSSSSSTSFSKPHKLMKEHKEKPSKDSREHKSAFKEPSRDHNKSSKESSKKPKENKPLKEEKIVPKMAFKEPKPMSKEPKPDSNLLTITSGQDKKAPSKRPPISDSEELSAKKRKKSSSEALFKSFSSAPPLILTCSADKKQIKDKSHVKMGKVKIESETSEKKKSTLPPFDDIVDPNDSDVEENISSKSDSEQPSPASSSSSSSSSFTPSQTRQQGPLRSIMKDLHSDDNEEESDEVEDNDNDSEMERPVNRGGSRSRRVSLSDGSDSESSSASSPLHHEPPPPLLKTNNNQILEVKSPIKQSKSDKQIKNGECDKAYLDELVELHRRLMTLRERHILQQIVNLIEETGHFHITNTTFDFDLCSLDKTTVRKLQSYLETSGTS
FGF22 binding: shifts melting point of recombinant human FGF22 | Q9HCT0 | recombinant FGF22 thermal shift, SYPRO orange fluorescence; percent of sucrose octasulfate shift, DMSO zero | calls only at 9.99 µM | 1.5% of 340,000 active;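 active = melting point raised past a set limit in the mean and every replicate; three in four hits are not shown here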
Target sequence (Q9HCT0 whole entry, looked up): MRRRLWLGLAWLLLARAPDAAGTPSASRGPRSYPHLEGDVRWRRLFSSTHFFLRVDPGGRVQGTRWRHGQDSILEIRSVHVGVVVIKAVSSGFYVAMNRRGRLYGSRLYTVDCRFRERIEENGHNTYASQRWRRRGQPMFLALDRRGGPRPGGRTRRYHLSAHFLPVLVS
ALR H2O2 inh: inhibitors of human sulfhydryl oxidase ALR. P55789. purified ALR, DTT oxidation, H2O2 HRP-luminol luminescence. inhibition, % (concentration not given with the values). 3.8% of 290,000 active;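 active = mean and each replicate at 75% or more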;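 note: stock transfer was 7.5 nL into about 7.5 µL; 0% = neutral wells and 100% = wells with inactivated enzyme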
Target sequence (P55789 whole entry, looked up): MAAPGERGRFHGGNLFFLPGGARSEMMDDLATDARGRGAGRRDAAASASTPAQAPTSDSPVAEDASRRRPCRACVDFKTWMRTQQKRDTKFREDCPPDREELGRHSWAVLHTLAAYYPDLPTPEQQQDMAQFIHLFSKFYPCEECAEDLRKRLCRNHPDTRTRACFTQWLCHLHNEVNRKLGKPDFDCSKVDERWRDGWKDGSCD
Ecoli rRNA inh OD600: further read-out of Ecoli rRNA inh, marked with its call; OD600 change, %; measured here: OD600 growth;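 optical density of the mix in the first replicate; 0 = DMSO median and -100 = no signal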
Ecoli rRNA inh RFP: further read-out of Ecoli rRNA inh, marked with its call; RFP signal change, %; measured here: RFP humanized mutant strains;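 first replicate; 0 = DMSO median and -100 = no signal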
Starred values were filed as active, the others as inactive; i = inactive; x = no result given; + = active, no number.

SMILES | Calb FLC | T cruzi inh | Beta apoptosis | Ecoli rRNA inh | Ecoli rRNA inh OD600 | Ecoli rRNA inh RFP | RanGTP-Impb inh | MLL AF4-AF9 inh | FGF22 binding | ALR H2O2 inh
NC(=O)CC[C@@H]1NC(=O)[C@H](CO)NC(=O)c2cc([N+](=O)[O-])cc(I)c2OCC[C@@H](C(N)=O)NC1=O | -11 | -4 | -1 | 20 | 20 | -0.5 | 0.8 | -8.1 | i | -16
Cc1ccc(S(=O)(=O)N(C)c2ccc(OC(=O)COc3ccccc3)cc2)cc1 | x | x | 7 | x | x | x | x | -1.6 | + | -53
CC(=O)NC(=S)NNC(=O)COc1ccc([N+](=O)[O-])cc1 | -3 | -18 | -3 | 14 | 18 | 5.3 | 3.6 | -5.3 | i | 21
O=C1CC(NNc2nc3ccccc3s2)C(=O)N1c1ccccc1 (centres undefined) | -18 | -15 | 2 | x | x | x | 0.0 | x | x | 41
O=C(/C=C\Nc1ccc2c(c1)OCO2)c1ccc2c(c1)OCO2 | 2 | 8 | -2 | 6 | -5 | 1.8 | -0.2 | 0.1 | i | -15
COc1ccc2c(c1)c(C(=O)N/N=C/c1cccs1)c(C)n2C | -8 | 1 | -4 | 6 | 5 | -2.1 | -3.3 | -0.5 | i | 21
c1cn(-c2ncnc3sc4c(c23)CCCC4)cn1 | -6 | -18 | -9 | x | x | x | -3.2 | x | x | x
O=C(O)c1ccc(-n2c(-c3ccc(Br)cc3)n[nH]c2=S)cc1 | -10 | 11 | -1 | x | x | x | -3.0 | x | x | 92*
Cc1cccc(CSCc2ccc(C(=O)NCC3CCCO3)o2)c1 (centres undefined) | -1 | 0 | -4 | -9 | -4 | 5.3 | -2.1 | 1.9 | i | 35
COc1ccc(NC(=S)Nc2ccc(S(N)(=O)=O)cc2)c(C)c1 | -13 | -17 | 0 | 13 | 19 | -0.1 | -1.3 | 0.2 | i | -6
COc1ccc(-n2c(Cn3c(=O)sc4ccccc43)nnc2SCC(=O)N2CCCCC2)cc1 | x | x | 0 | -6 | -22 | 2.2 | x | 9.7 | i | -30
CCOC(=O)c1sc(NC(=O)c2cc3c(s2)CCC(C)C3)nc1C (centres undefined) | 0 | 11 | 9 | x | x | x | -0.4 | x | x | -6
COc1nc(OC)nc(N2CCC(C(=O)NC3CC3)CC2)n1 | -7 | 3 | -8 | 33 | 25 | -5.6 | -1.5 | -1.2 | i | -4
O=C(c1cccc2nccnc12)N1CCCC(Nc2ccc(F)c(F)c2)C1 (centres undefined) | 5 | 5 | -1 | -4 | -2 | -0.6 | 1.1 | 2.5 | i | 7
COc1ccc(Cn2c(CCC(=O)Nc3ccc(CC#N)cc3)nc3cccnc32)cc1 | 22 | 4 | 10 | x | x | x | 5.4 | x | x | -4
COc1ccc(C(=O)NC(=S)Nc2ccc3[nH]c(=O)[nH]c3c2)c(OC)c1 | -5 | 0 | -5 | x | x | x | -4.1 | -1.6 | i | -20
C=CCSc1nn2c(=O)c3ccccc3nc2s1 | -4 | 3 | -1 | x | x | x | 0.1 | x | x | 4
CCN(CC(=O)Nc1ccccc1C(F)(F)F)C(=O)c1ccc2[nH]c3c(c2c1)CC(C)CC3 (centres undefined) | 7 | 31 | 10 | -7 | -22 | -2.4 | x | -9.9 | i | -2
COc1cccc(CC2(CO)CCCN(Cc3nc(-c4cccs4)oc3C)C2)c1 (centres undefined) | -3 | 31 | -4 | -1 | -7 | -2.1 | -4.2 | 8.2 | i | 4
CC1CCCCC1NC(=O)CN1CCC(NC(=O)c2ccc([N+](=O)[O-])cc2)CC1 (centres undefined) | -8 | 20 | 4 | -7 | 11 | 0.9 | -0.1 | 0.1 | i | x
O=C(CN1CCCCC1)N/N=C/c1cccc(C(F)(F)F)c1 | -18 | 10 | x | 1 | 1 | -2.7 | 2.4 | 0.3 | i | 1
Cc1ccc(C)n1-c1cccc(C(=O)Nc2ccccc2)c1 | -4 | -23 | x | 1 | 3 | -1.0 | 1.4 | -0.2 | i | -9
COc1ccc(Cl)cc1NC(=O)C1CC(c2c(F)cccc2Cl)=NO1 (centres undefined) | -11 | 1 | 3 | -30* | -23* | -3.6* | -1.5 | -1.8 | i | -1
Cc1ccc(C(=O)Nc2ccccc2OC(F)F)cc1 | -9 | 6 | -2 | x | x | x | 0.3 | x | x | 0
Cc1cc(C)nc(SCc2csc(-c3ccccc3)n2)n1 | 4 | -1 | -2 | x | x | x | 1.2 | x | x | 99*
(next part)
SMILES | Calb FLC | T cruzi inh | Beta apoptosis | Ecoli rRNA inh | Ecoli rRNA inh OD600 | Ecoli rRNA inh RFP | RanGTP-Impb inh | MLL AF4-AF9 inh | FGF22 binding | ALR H2O2 inh
COc1cc(OC)cc(C(=O)OCC(=O)NC(c2ccccc2)c2ccccc2)c1 | x | x | -3 | 6 | 9 | -1.9 | x | -0.3 | i | 5
CC(=O)Nc1ccc(NC(=S)NC(=O)/C=C/c2ccccc2)cc1 | 2 | -28 | -1 | 3 | 17 | 0.0 | -3.4 | -4.7 | i | 0
Cc1ccc(SC[C@H](Cc2ccccc2)N2CCN(C)CCC2=O)cc1 | 0 | -18 | x | -8 | -30 | 6.9 | 4.4 | 3.7 | i | x
N#Cc1c(NC(=O)CSc2nc3ccccc3c(=O)n2Cc2ccco2)sc2c1CCCC2 | -6 | -5 | -4 | x | x | x | -2.9 | x | x | x
O=C(COc1cccnc1[N+](=O)[O-])Nc1ccc(F)cc1 | x | x | 5 | 4 | 20 | -1.7 | x | -1.3 | i | -5
CC(C)(C)C(=O)Nc1ccc(C(=O)Nc2cccc(Oc3ccc(C(=O)O)c(C(=O)O)c3)c2)cc1 | 13 | -2 | x | 21 | 11 | 0.7 | -4.8 | -13 | x | 4
COC(=O)c1cccc(NC(=O)CSc2nc(O)c(-c3ccccc3)c(=O)[nH]2)c1 | -5 | x | -5 | 15 | 9 | 5.3 | -1.0 | -2.9 | i | x
COc1ccc(OC(C)c2ccc(C#N)c(=O)[nH]2)cc1 (centres undefined) | -1 | -6 | -1 | -2 | -1 | 0.4 | -13 | -0.8 | i | -1
COc1ccc(OC)c(NC(=O)COC(=O)Cc2ccc(Br)cc2)c1 | 6 | -29 | -5 | -13 | -13 | 4.5 | 1.2 | -1.1 | x | 8
COc1cc(Br)cc(-c2nc3c(c(=O)[nH]c(=O)n3Cc3ccccc3)n2C)c1O | 4 | 11 | -3 | x | x | x | -0.6 | x | x | 30
COC(=O)c1ccccc1NC(=O)Cn1c(=O)n(CCC(=O)NC2CCN(Cc3ccccc3)CC2)c(=O)c2ccccc21 | 5 | 20 | -4 | 0 | -6 | 0.2 | 1.3 | 0.9 | i | -2
O=C(Cn1ncc(Cl)c(Cl)c1=O)NC1CCS(=O)(=O)C1 (centres undefined) | 1 | 2 | -13 | -5 | 8 | -2.1 | 2.0 | x | i | 4
O=C(CSc1nc2c(c(=O)[nH]1)CCC2)Nc1ccccc1Cl | 5 | -2 | 0 | 4 | 7 | 2.1 | -1.8 | 3.1 | i | x
CN(C)S(=O)(=O)c1ccc(C(=O)Nc2cccc(C(=O)O)c2)cc1 | 31 | 4 | -3 | x | x | x | 25 | x | x | 1
CC(C)Cc1csc(NC(=O)c2ccc(Br)cc2)c1C(=O)O | 5 | -7 | -3 | -26* | -11* | 3.2* | 3.3 | -9.3 | i | 4
COc1ccc2cc(/C(C)=N/NC(=O)C3CC3)ccc2c1 | -5 | -1 | -3 | -6 | 3 | -0.4 | 3.3 | -2.5 | i | -189
COc1ccc(Cn2c(O)c(/C=N/NC(=O)c3cccnc3)c3ccccc3c2=O)cc1 | 103* | 10 | x | -12 | -6 | -1.6 | 9.5 | 9.5 | i | x
Cc1onc(-c2ccccc2Cl)c1C(=O)Nc1nnc(-c2ccc(Br)cc2)s1 | 49 | 3 | 8 | -6 | -16 | 12 | 2.3 | -1.5 | i | -7
CCOc1cccc(C=Nc2cc(C)cc(C)c2O)c1O | -12 | 6 | 0 | 4 | 2 | -8.0 | -1.2 | 4.0 | i | 48
CC(=O)NCCc1c[nH]c2ccc(O)cc12 | x | -18 | -7 | 4 | 13 | -1.1 | 3.2 | -1.1 | i | 66
CCOCCCn1c(=NC(=O)c2cccnc2)c(C(=O)OCC)cc2c(=O)n3ccccc3nc21 | 0 | 45 | -1 | -7 | -9 | -1.0 | 119* | -0.4 | i | -7
COc1ccc(OC)c(CN2CCSCC2)c1 | 5 | -12 | -1 | 20 | 11 | 0.8 | -2.0 | 3.1 | i | 4
CCc1nnc(NS(=O)(=O)c2ccc(NC(=O)c3cccc(Br)c3)cc2)s1 | 15 | -11 | -7 | -44 | -40 | -12 | -2.6 | 0.1 | x | x
COc1ccc(-c2csc(N3CCN(c4cc(C)nc5ccccc45)CC3)n2)cc1OC | 31 | 27 | -2 | x | x | x | 3.0 | 12 | i | -10
C=CCN1C(=O)C(CC(=O)Nc2ccc(C)cc2)SC1=Nc1c(C)n(C)n(-c2ccccc2)c1=O (centres undefined) | 9 | -7 | 1 | 6 | -4 | -0.7 | 5.6 | 4.6 | i | -4
New compounds follow.
SMILES | Calb FLC | T cruzi inh | Beta apoptosis | Ecoli rRNA inh | Ecoli rRNA inh OD600 | Ecoli rRNA inh RFP | RanGTP-Impb inh | MLL AF4-AF9 inh | FGF22 binding | ALR H2O2 inh
COCCNC(=O)C(c1ccc(C)cc1)N(Cc1ccccc1)C(=O)CCC(=O)Nc1ccccn1 (centres undefined) | 0 | 7 | -3 | -2 | -5 | -0.9 | 1.5 | -2.7 | i | -9
O=C(O)c1cc(Cl)c(Cl)cc1C(=O)Nc1cccc2ncccc12 | -12 | -3 | -6 | 10 | 8 | -1.2 | 20 | 1.9 | i | 26
CC1(C)OC(=O)N(NCc2ccccc2)C1(C)O (centres undefined) | -2 | -5 | -1 | 10 | -7 | 5.1 | 0.7 | -3.6 | i | -11
CCn1cc(/C=C(\NC(=O)c2ccc(C)cc2)C(=O)NCCCN2CCOCC2)c2ccccc21 | 3 | 2 | x | 4 | 1 | -3.5 | 3.8 | 0.9 | i | x
C/C(=N\NC(=O)c1ccc(Cl)c(Cl)c1)c1cccc(NC(=O)C(C)C)c1 | -20 | -3 | 3 | x | x | x | -3.2 | x | x | -1
COc1ccc(CCNC(=O)CCS(=O)(=O)c2ccc3nc(C)sc3c2)cc1OC | 6 | -6 | 5 | -4 | -12 | -3.7 | -3.6 | -1.5 | i | -3
CS(=O)(=O)N(CC(=O)N1CCCCCC1)c1cccc(Cl)c1Cl | 3 | 1 | x | -1 | -8 | -1.2 | -2.4 | 0.9 | i | 0
COc1ccc(CNC(=O)c2cc(-c3ccncc3)nc3c(C)cc(C)cc23)cc1OC | -16 | 33 | 6 | 10 | 7 | 5.3 | 0.8 | 0.5 | i | x
O=C(COC(=O)COc1cccc(C(F)(F)F)c1)NC(=O)NC1CCCCC1 | 2 | -14 | -9 | 1 | 5 | -0.9 | 1.6 | -2.1 | i | -11
Cn1cccc1C(=O)NCc1ccc(S(N)(=O)=O)cc1 | 7 | -28 | -3 | 7 | 19 | -2.0 | -2.9 | -0.2 | i | 2
Clc1cccc(Cl)c1CSc1nnc(-c2ccncc2)s1 | -4 | 50 | -3 | 3 | 2 | -2.1 | -0.1 | -3.6 | i | -7
COc1ccc(COC(=O)CN2C(=O)NC3(CCCC3)C2=O)cc1F | 0 | -12 | -2 | 11 | 7 | -1.9 | 2.8 | -12 | i | -28

An excerpt. The share of hits here may be higher or lower than overall.
